Vaccinia stage = Vaccinia orthopox stage-specific inhibition | Vaccinia-infected cells, mCherry/Venus stage reporter fluorescence; active compounds read low; some inactives read as strong as hits | 89,000 tested, 0.01% active | activity change (mCherry), % (concentration not given with the values);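 active = mCherry past -33% and 40 or more points under the early reporter, replicates agreeing; inconclusive = past -33% without that gap or agreement; tested in A549 cells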;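 also: scaled between vehicle wells and reference inhibitor wells; 23 nL library stock went into each well; one replicate is shown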
Vaccinia stage Venus = also measured in Vaccinia stage; calls as there; activity change (Venus), %; measured here: Venus reporter, other viral stage;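 negative = less Venus signal; first of two replicates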
The depositor's hits bear a star; u = inconclusive; x = not tested or not shown.

SMILES	Vaccinia stage	Vaccinia stage Venus
CO[C@@H]1CN(C)C(=O)c2cc(NS(=O)(=O)CC(F)(F)F)ccc2OC[C@@H](C)N(C(=O)c2ccc3c(c2)OCO3)C[C@@H]1C	17	7
C[C@H](CO)N1C[C@H](C)[C@@H](CN(C)Cc2ccncc2)Oc2cc(C#C[C@@H](C)O)ccc2S1(=O)=O	-10	-7
C[C@H]1CN([C@@H](C)CO)C(=O)c2ccccc2-c2ccccc2CO[C@@H]1CN(C)CC1CC1	19	5
CNC[C@H]1OCCCC[C@H](C)Oc2ccc(NC(=O)Nc3ccccc3)cc2C(=O)N([C@H](C)CO)C[C@@H]1C	-1	5
O=C(N[C@@H]1CC[C@H](CCNS(=O)(=O)Cc2ccccc2)O[C@H]1CO)c1ccccc1F	2	10
O=C(N[C@@H]1CC[C@@H](CC(=O)N2CCOCC2)O[C@H]1CO)c1cccc(F)c1	7	10
COCCNC(=O)C[C@@H]1C[C@H]2c3cc(NC(=O)CN(C)C)ccc3O[C@H]2[C@H](CO)O1	11	12
O=C1CN(S(=O)(=O)c2ccccc2)C[C@@H]2[C@@H](c3ccc(C#CCc4ccccc4)cc3)[C@H](CO)N12	10	3
CC(C)(O)C#Cc1ccc([C@H]2[C@H](CO)N3CCCCN(S(C)(=O)=O)C[C@@H]23)cc1	22	21
Cc1noc(C)c1S(=O)(=O)Nc1ccc2c(c1)C(=O)N([C@@H](C)CO)C[C@H](C)[C@@H](CN(C)C(=O)NC1CCCCC1)OCCCC[C@@H](C)O2	-16	-10
CNC[C@@H]1OCCCC[C@@H](C)Oc2ccc(NS(=O)(=O)c3ccc(Cl)cc3)cc2C(=O)N([C@H](C)CO)C[C@H]1C	-4	9
C[C@H]1CN([C@@H](C)CO)C(=O)c2cc(NC(=O)CCC(F)(F)F)ccc2O[C@H]1CN(C)C(=O)Nc1ccc(C(F)(F)F)cc1	-8	2
C[C@@H]1CN([C@H](C)CO)C(=O)c2cccc(NC(=O)NC3CCCCC3)c2O[C@@H]1CN(C)Cc1ccc(Cl)c(Cl)c1	u	x
C[C@@H]1CN([C@@H](C)CO)C(=O)c2cc(C#CCN(C)C)cnc2O[C@@H]1CN(C)C(=O)CCN1CCCCC1	39	3
Cc1ccccc1-c1ccc2c(c1)O[C@H](CN(C)C(=O)Nc1ccc(C(F)(F)F)cc1)[C@H](C)CN([C@@H](C)CO)S2(=O)=O	-32	-28
COc1ccccc1-c1ccc2c(c1)O[C@@H](CN(C)C(=O)c1ccccc1)[C@H](C)CN([C@H](C)CO)S2(=O)=O	-13	-23
O=C(C[C@H]1C[C@@H]2c3cc(NC(=O)CC4CC4)ccc3O[C@@H]2[C@H](CO)O1)NCc1ccc(-c2ccccc2)cc1	11	10
C[C@@H]1CN([C@H](C)CO)C(=O)Cc2cc(NC(=O)Nc3ccc(C(F)(F)F)cc3)ccc2O[C@@H]1CN(C)Cc1ccc(Cl)c(Cl)c1	u	x
C[C@H](NC(=O)[C@@H]1[C@@H](CO)[C@@H]2Cn3c(ccc(-c4cccnc4)c3=O)[C@H]1N2C)c1ccccc1	6	5
C[C@@H]1CN([C@H](C)CO)C(=O)c2cc(NC(=O)Cn3cnnn3)ccc2O[C@H]1CN(C)C(=O)Nc1ccc(C(F)(F)F)cc1	1	-5
CCNC(=O)Nc1ccc2c(c1)C(=O)N(C)[C@@H]1CC[C@@H](CC(=O)N[C@@H](C)c3ccccc3)O[C@@H]1CO2	0	-1
COc1cccc(S(=O)(=O)N(C)C[C@@H]2Oc3cc(C#CCC(C)C)ccc3S(=O)(=O)N([C@@H](C)CO)C[C@H]2C)c1	-12	-20
Cc1noc(C)c1NC(=O)Nc1ccc2c(c1)C(=O)N([C@@H](C)CO)C[C@@H](C)[C@H](CN(C)S(=O)(=O)c1ccc(Cl)cc1)OCCCC[C@@H](C)O2	5	-3
C[C@@H]1CN([C@@H](C)CO)C(=O)c2cccc(NC(=O)C3CCCCC3)c2O[C@@H]1CN(C)S(C)(=O)=O	9	9
CCC(=O)N1[C@@H](CO)[C@@H]2c3ccccc3N(C(=O)Nc3ccc(Cl)cc3)C[C@@H]21	-11	1
Cc1ccc(S(=O)(=O)N(C)C[C@@H]2Oc3ccc(NS(=O)(=O)c4cccs4)cc3CC(=O)N([C@@H](C)CO)C[C@H]2C)cc1	-3	-8
CCCNC(=O)[C@@H]1[C@@H](CO)[C@@H]2Cn3c(cccc3=O)[C@H]1N2S(=O)(=O)c1ccccc1F	26	10
CC(C)NC(=O)N(C)C[C@@H]1OCCCC[C@@H](C)Oc2ccc(NC(=O)CCCCCC(=O)Nc3ccccc3N)cc2C(=O)N([C@H](C)CO)C[C@@H]1C	-1	9
Cc1ccc(S(=O)(=O)N(C)C[C@@H]2Oc3ncc(C#CC4(O)CCCC4)cc3C(=O)N([C@@H](C)CO)C[C@@H]2C)cc1	2	-1
C[C@@H]1CN([C@@H](C)CO)C(=O)c2cc(NC(=O)CCN3CCOCC3)ccc2O[C@@H]1CN(C)Cc1ccccc1	-3	-1

Compounds above with a CF3 group, in the order listed:
SMILES	Vaccinia stage	Vaccinia stage Venus
CO[C@@H]1CN(C)C(=O)c2cc(NS(=O)(=O)CC(F)(F)F)ccc2OC[C@@H](C)N(C(=O)c2ccc3c(c2)OCO3)C[C@@H]1C	17	7
C[C@H]1CN([C@@H](C)CO)C(=O)c2cc(NC(=O)CCC(F)(F)F)ccc2O[C@H]1CN(C)C(=O)Nc1ccc(C(F)(F)F)cc1	-8	2
Cc1ccccc1-c1ccc2c(c1)O[C@H](CN(C)C(=O)Nc1ccc(C(F)(F)F)cc1)[C@H](C)CN([C@@H](C)CO)S2(=O)=O	-32	-28
C[C@@H]1CN([C@H](C)CO)C(=O)Cc2cc(NC(=O)Nc3ccc(C(F)(F)F)cc3)ccc2O[C@@H]1CN(C)Cc1ccc(Cl)c(Cl)c1	u	x
C[C@@H]1CN([C@H](C)CO)C(=O)c2cc(NC(=O)Cn3cnnn3)ccc2O[C@H]1CN(C)C(=O)Nc1ccc(C(F)(F)F)cc1	1	-5

Some values from the results shown:
Reading of `CC(C)NC(=O)N(C)C[C@@H]1OCCCC[C@@H](C)Oc2ccc(NC(=O)CCCCCC(=O)Nc3ccccc3N)cc2C(=O)N([C@H](C)CO)C[C@@H]1C` in Vaccinia stage Venus: 9
Reading of `O=C1CN(S(=O)(=O)c2ccccc2)C[C@@H]2[C@@H](c3ccc(C#CCc4ccccc4)cc3)[C@H](CO)N12` in Vaccinia stage: 10

New compounds follow:
SMILES	Vaccinia stage	Vaccinia stage Venus
O=C(N[C@H]1CC[C@@H](CC(=O)N2CCN(c3ccccc3)CC2)O[C@@H]1CO)c1ccccc1	2	9
CC(=O)N(C)C[C@@H]1Oc2cc(C#Cc3ccccc3)ccc2S(=O)(=O)N([C@@H](C)CO)C[C@H]1C	u	x
N#C[C@H]1[C@H](c2ccc(-c3cccnc3)cc2)[C@@H](CO)N1C(=O)C1CCOCC1	11	-5
C[C@@H]1CN([C@@H](C)CO)C(=O)c2cc(NC(=O)c3ccncc3)ccc2O[C@@H](C)CCCCO[C@@H]1CN(C)C(=O)NC1CCCCC1	34	24
C[C@H](CO)N1C[C@H](C)[C@@H](CN(C)C(=O)Nc2cccc3ccccc23)Oc2ccc(NC(=O)CCC(F)(F)F)cc2CC1=O	3	14
O=C(c1ccc(F)cc1)N1C[C@@H]2[C@H](c3ccccc31)[C@H](CO)N2C(=O)c1ccccc1	6	12
C[C@H](CO)N1C[C@H](C)[C@H](CN(C)C)Oc2ncc(C#Cc3cccnc3)cc2C1=O	9	7
CCCNC(=O)N1C[C@@H](C)[C@H](OC)CN(C)C(=O)c2cc(NS(=O)(=O)CC)ccc2OC[C@H]1C	4	2
CCNC(=O)[C@H]1[C@H](CO)[C@H]2Cn3c(ccc(-c4cccc(OC)c4)c3=O)[C@H]2N1S(C)(=O)=O	12	4
O=C(O)C1=C[C@@H](c2ccc3c(c2)Cc2ccccc2-3)C[C@@H](OCc2ccc(CO)cc2)O1	-1	2
CO[C@H]1CN(C)C(=O)c2cc(NS(=O)(=O)c3cccc(F)c3)ccc2OC[C@@H](C)N(C(=O)Cc2cccnc2)C[C@H]1C	10	10
CCCC#Cc1ccc2c(c1)O[C@H](CN(C)CC1CC1)[C@H](C)CN([C@H](C)CO)S2(=O)=O	-33	-24
C[C@H](CO)N1C[C@H](C)[C@@H](CN(C)C(=O)CN(C)C)Oc2cc(C3=CCCC3)ccc2S1(=O)=O	-13	-4
C[C@@H]1CN([C@@H](C)CO)C(=O)Cc2cc(NC(=O)CCC(F)(F)F)ccc2O[C@@H]1CN(C)Cc1ccc(Cl)c(Cl)c1	u	x
C[C@@H]1CCCCO[C@H](CN(C)C(=O)Nc2ccc(C(F)(F)F)cc2)[C@H](C)CN([C@@H](C)CO)C(=O)c2cc(NS(=O)(=O)c3ccccc3)ccc2O1	-23	-22
O=C(NC[C@H]1[C@H](c2ccccc2)[C@H](CO)N1Cc1cccnc1)c1ccccn1	14	6
COc1ccc2c3c(n(C)c2c1)[C@H](CO)N(C(=O)Nc1ccccc1F)CC31CCN(C)CC1	u	x
O=C(NCC[C@@H]1CC[C@@H](NC(=O)C2CCC2)[C@@H](CO)O1)c1cc(Cl)cc(Cl)c1	8	11
C[C@H](CO)N1C[C@H](C)[C@H](CN(C)Cc2cccnc2)Oc2cc(/C=C/c3ccccc3)ccc2S1(=O)=O	-23	-29
CC(C)NC(=O)N(C)C[C@H]1Oc2ccc(NC(=O)NC3CCCCC3)cc2CC(=O)N([C@H](C)CO)C[C@@H]1C	-3	-2
CN1C(=O)c2cc(NC(=O)Nc3ccccc3F)ccc2OC[C@H]2O[C@@H](CC(=O)Nc3cccc(Cl)c3)CC[C@@H]21	-12	-2
O=C(Cc1ccccc1)N1CCCCN2[C@H](C1)[C@H](c1ccc(C#Cc3ccccc3)cc1)[C@@H]2CO	u	x
CN(C)C(=O)[C@@H]1[C@@H](CO)[C@@H]2Cn3c(ccc(C4=CCCC4)c3=O)[C@@H]2N1Cc1ccccn1	10	8
CC(C)c1cn(CC[C@H]2CC[C@H](NS(=O)(=O)c3ccc(Cl)cc3)[C@@H](CO)O2)nn1	2	8
CCNC(=O)C[C@@H]1CC[C@@H]2[C@@H](COc3ccc(NC(=O)c4ccc(F)c(F)c4)cc3C(=O)N2C)O1	-1	12
O=C(C[C@@H]1CC[C@H](NC(=O)Nc2ccccc2F)[C@@H](CO)O1)NCc1ccc(Cl)cc1	-2	-4
O=C(C[C@H]1CC[C@@H](NC(=O)C2CC2)[C@H](CO)O1)NCC1CC1	-1	3
O=S(=O)(c1ccc(F)cc1)N1CCCCN2[C@H](CO)[C@@H](c3ccc(-c4ccccc4)cc3)[C@H]2C1	u	x
N#Cc1cccc(-c2ccc([C@H]3[C@H]4CN(C(=O)Nc5ccccc5)CCCCN4[C@H]3CO)cc2)c1	-25	-23
CN1CCN(C(=O)c2cc3c(c(-c4cccc(C#CCC5CCCC5)c4)n2)[C@@H](CCO)N(S(=O)C(C)(C)C)C3)CC1 (stereo partly drawn)	-65*	-25*
CO[C@H]1CN(C)C(=O)c2cc(NC(=O)NC3CCCCC3)ccc2OC[C@H](C)N(C(C)=O)C[C@@H]1C	-13	-12
COc1ccc(CN(C)C[C@H]2OCCCC[C@@H](C)Oc3ccc(NS(=O)(=O)c4ccccc4)cc3C(=O)N([C@H](C)CO)C[C@@H]2C)cc1	-6	1
C[C@@H]1CCCCO[C@@H](CN(C)C(=O)Nc2ccc(C(F)(F)F)cc2)[C@@H](C)CN([C@H](C)CO)C(=O)c2cc(NS(=O)(=O)c3ccccc3)ccc2O1	-8	-5
C[C@H]1CN([C@@H](C)CO)C(=O)c2cccc(NC(=O)C3CCOCC3)c2O[C@H]1CN(C)Cc1ccncc1	-1	-4
CCCC(=O)N1CC2(CN(C(=O)NC(C)C)C2)c2c(n(C)c3cc(OC)ccc23)[C@@H]1CO	18	11
C[C@H](CO)N1C[C@H](C)[C@H](CN(C)C(=O)NC2CCCCC2)Oc2ccc(NS(=O)(=O)c3cccs3)cc2C1=O	11	8
COc1ccc(-c2ccc3c(c2)O[C@H](CN(C)Cc2cccnc2)[C@H](C)CN([C@@H](C)CO)S3(=O)=O)cc1	u	x
C[C@@H]1CN([C@H](C)CO)C(=O)Cc2cc(NC(=O)Nc3cccc4ccccc34)ccc2O[C@@H]1CN(C)C	-11	-15
Cc1noc(C)c1NC(=O)N(C)C[C@H]1Oc2ccc(NC(=O)CCN3CCOCC3)cc2C(=O)N([C@@H](C)CO)C[C@H]1C	16	8
C[C@@H]1CCCCO[C@@H](CN(C)C(=O)Nc2ccccc2)[C@@H](C)CN([C@H](C)CO)C(=O)c2cc(NS(C)(=O)=O)ccc2O1	16	3
CCS(=O)(=O)N1CCCCN2[C@H](CO)[C@@H](c3ccc(C#CC(C)(C)O)cc3)[C@@H]2C1	21	13
CCCN1C[C@@H](C)[C@@H](OC)CN(C)C(=O)c2cc(NC(=O)c3ccc(F)cc3)ccc2OC[C@@H]1C	2	7
O=C(NCC(F)(F)F)[C@H]1[C@H](CO)[C@H]2Cn3c(cccc3=O)[C@@H]1N2C(=O)C1CC1	4	4
CCS(=O)(=O)N1CC2(C1)[C@H](c1ccccc1)[C@@H](CO)N2CC1CCCC1	4	8
C[C@@H]1CN([C@@H](C)CO)C(=O)c2cc(NS(C)(=O)=O)ccc2O[C@@H](C)CCCCO[C@@H]1CN(C)C(=O)Nc1ccccc1	-2	-1
Cc1noc(C)c1S(=O)(=O)Nc1ccc2c(c1)C(=O)N([C@H](C)CO)C[C@H](C)[C@H](CN(C)Cc1ccncc1)OCCCC[C@@H](C)O2	18	13
CN1C(=O)c2cc(NS(C)(=O)=O)ccc2OC[C@@H]2O[C@H](CC(=O)NC3CCCCC3)CC[C@H]21	12	0
COc1cccc(NC(=O)N(C)C[C@@H]2Oc3ncc(C#Cc4ccncc4)cc3C(=O)N([C@@H](C)CO)C[C@@H]2C)c1	-2	-2

Complete entries as entered above:
O=C(c1ccc(F)cc1)N1C[C@@H]2[C@H](c3ccccc31)[C@H](CO)N2C(=O)c1ccccc1 in the list: Vaccinia stage = 6; Vaccinia stage Venus = 12
CCCC#Cc1ccc2c(c1)O[C@H](CN(C)CC1CC1)[C@H](C)CN([C@H](C)CO)S2(=O)=O in the list: Vaccinia stage = -33; Vaccinia stage Venus = -24

High-throughput results as filed in PubChem BioAssay.

These rows are one share of the data, so the mix of outcomes need not match the whole.
